# Bioassay records: PubChem BioAssay, several laboratories
# YopH inh – YopH tyrosine phosphatase inhibitors, primary screen, biochemical, fluorescence Ex485/Em525. YopH tyrosine phosphatase [Yersinia enterocolitica]. hit rate 0.16% among 140,000. inhibition, %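 (about 10 µM by stock and volumes)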;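 active = inhibition of 50% or more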;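 note: controls were vehicle for no effect and minimum signal wells for full effect; inactives centre near -20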
# RecA splice inh – Mtb RecA intein splicing inhibitors, primary screen, biochemical, fluorescence, HTS. cell-free RecA intein splicing. inhibition, %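 (about 9 µM by stock and volumes)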. hit rate 0.75% among 290,000; in the data active = inhibition above about 30%; inconclusive = no clear call, values can overlap the other calls;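 note: 0% = vehicle wells and 100% = reference inhibitor control wells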
# Target sequence (P9WHJ3 whole entry, looked up, canonical isoform): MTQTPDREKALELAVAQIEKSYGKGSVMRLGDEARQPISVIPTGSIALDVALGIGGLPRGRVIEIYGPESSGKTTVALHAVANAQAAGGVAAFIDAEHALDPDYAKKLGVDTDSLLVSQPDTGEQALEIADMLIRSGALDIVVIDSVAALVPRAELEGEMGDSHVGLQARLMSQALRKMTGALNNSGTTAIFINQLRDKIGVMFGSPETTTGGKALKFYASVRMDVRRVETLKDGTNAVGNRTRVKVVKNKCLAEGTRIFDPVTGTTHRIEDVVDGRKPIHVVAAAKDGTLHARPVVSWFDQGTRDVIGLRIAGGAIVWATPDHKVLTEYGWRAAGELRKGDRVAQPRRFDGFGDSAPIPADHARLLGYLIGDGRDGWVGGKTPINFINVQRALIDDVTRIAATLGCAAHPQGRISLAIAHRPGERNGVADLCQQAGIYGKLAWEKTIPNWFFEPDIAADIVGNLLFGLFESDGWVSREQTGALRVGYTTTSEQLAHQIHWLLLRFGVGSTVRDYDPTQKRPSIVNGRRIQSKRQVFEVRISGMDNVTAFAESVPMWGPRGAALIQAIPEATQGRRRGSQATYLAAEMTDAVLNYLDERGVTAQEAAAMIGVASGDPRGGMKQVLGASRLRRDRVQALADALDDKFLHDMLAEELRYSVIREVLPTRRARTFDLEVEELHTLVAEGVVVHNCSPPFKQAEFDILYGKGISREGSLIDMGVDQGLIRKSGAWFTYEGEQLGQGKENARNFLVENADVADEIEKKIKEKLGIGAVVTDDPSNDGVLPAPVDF
# Arbovirus anti – antivirals against arbovirus infection, primary screen, cell-based, full library, 10K replicate subset | arbovirus infection cell-based antiviral screen | inhibition, % at 10 µM | hit rate 0.37% among 200,000 | AID 1251, 2008;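 active = inhibition from about 30%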;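 note: bluetongue infection of BSR cells; cell survival read as ATP light after 72 h; 0% = infected wells without compound and 100% = uninfected wells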
# Mtb H37Rv – M. tuberculosis H37Rv growth inhibitors, H37Rv strain (AID 1626); M. tuberculosis H37Rv growth inhibition; higher % means a stronger effect; hit rate 0.95% among 220,000; inhibition, % at 10 µM, or IC50 in µM where a hit was titrated;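 active = confirmed in a dose series; inconclusive = inhibition above 80% but not taken into the dose series; inactive = below 80% or under 30% at every dose of the series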;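 note: bacteria incubated seven days before Alamar blue readout; 0% = bacteria only wells and 100% = bacteria with antibiotic wells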
# Mtb betalactam – beta-lactam sensitization of Mtb H37Rv, H37Rv; M. tuberculosis H37Rv growth with meropenem, percent inhibition; hits of this screen are not shown here; hit rate 0.27% among 330,000; inhibition, % at 25 µM;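 active = about 74% or more and at least 40 points above the plate without the antibiotic, then above 30% in a dose series; inconclusive = first-round hits that could not be retested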;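 note: growth measured after seven days incubation then overnight dye step; 0% = bacteria only wells and 100% = bacteria with antibiotic; twin plates without the antibiotic show which effects depend on it; some results filed as inactive read as strong as hits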
# Arbovirus anti repeat – recorded beside Arbovirus anti, whose call it bears; inhibition, %; measured here: 10K subset replicate screen; many hits read low in the repeat;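 first of two repeat runs on a subset; 0% = infected and 100% = uninfected wells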
# Numbers without * were called inactive; ? = inconclusive; / = no result given; & = joins results of further samples. This is a subset. The share of hits here may be higher or lower than overall.
SMILES,YopH inh,RecA splice inh,Arbovirus anti,Mtb H37Rv,Mtb betalactam,others
Clc1ccccc1Nc1nc(-c2cccnc2)cs1,/,2.3,3,1%,12,
CC1(C)CC(C(CCN(Cc2ccccc2)C(=O)c2ccco2)c2ccc(F)cc2)CCO1 (stereo unspecified),-7,35*,-35,3%,-2,
CCOC(=O)c1ccc(-n2c(=S)sc3c(=O)[nH]c(C)nc32)cc1,-25,-7.2,22,7%,-9,
Cc1ccc2cc(CCNS(=O)(=O)c3ccc(Cl)cc3)c(=O)[nH]c2c1C,/,1.9,/,/,-5,
N#CCSc1nc2ccccc2c(=O)n1CC1CCCC1,/,2.6,-8,-2%,0,
CCCN1CCN(CC(=O)Nc2nc3ccccc3s2)CC1,/,-1.7,/,/,7,
Cc1ccc(N(CC(=O)NC2CCCCC2)C(=O)Cn2nnc(-c3ccc(C)o3)n2)cc1,/,-0.2,3,-6%,1,
COc1ccc(-c2oc3ccccc3c(=O)c2OC(C)=O)cc1,/,-23,2,68%,80,
CCC(=O)N(CCc1ccccc1)Cc1cc2cc3c(cc2[nH]c1=O)OCO3,-11,-0.6,4,-1%,-11,
O=C(NCc1ccco1)c1ccc(Cn2c(=O)c3sccc3n(Cc3cccc(F)c3)c2=O)cc1,-47,-0.3,8,6%,-2,
COc1ccc(C2CC(=O)c3cnc(N)nc3C2)c(OC)c1 (stereo unspecified),-46,0.5,2,-4%,/,
C=C(C)Cc1c(C)c(C#N)c2nc3ccccc3n2c1N1CCCCC1,-26,-0.9,6,-1%,7,
Cc1ccc[n+](CC(=O)Nc2c(Cl)cc(Cl)cc2Cl)c1,/,-0.6,1,-5%,-2,
Cc1oc(-c2cc(F)cc(F)c2)nc1CN1CCN(C(=O)c2ccco2)CC1,/,4.6,/,/,-5,
c1ccc(-c2ccc3c(n2)CCCO3)cc1,/,-2.3,/,-14%,4,
CC(C)NC(=O)c1ccccc1NC(=O)Cc1ccc(Br)cc1,/,-0.2,-4,4%,0,
O=C1CSC(=S)N1c1cccc(O)c1,/,5.5,/,/,5,
O=c1c2ccccc2nc2n1C(CSc1ccc(F)cc1)CS2 (stereo unspecified),/,-2.8,4,5%,7,
CCOC(=O)N1CCN(S(=O)(=O)c2ccc(F)c(C(=O)Nc3cc(C)cc(C)c3)c2)CC1,-20,0.5,13,-3%,0,
O=C(CCNC(=O)c1ccco1)Nc1ccc(Cl)cc1,/,-2.2,-9,-1%,5,
Clc1cc(Cl)cc(Nc2ncn[nH]2)c1,-15,5.8,6,6%,99,
O=C(COC(=O)c1n[nH]c2ccccc12)NC(=O)NC1CCCCC1,-28,1.8,6,-3%,2,
O=C1CC(N2CCC(c3nc4ccccc4o3)CC2)C(=O)N1c1ccc(Cl)c(C(F)(F)F)c1 (stereo unspecified),-18,1.1,26,-4%,1,
S=c1[nH]nc(-c2ccc(Cl)cc2)n1/N=C/C=C/c1ccco1,/,9.8,/,10%,17,
FC(F)(F)c1cc(Oc2ccccc2)nc(-c2ccccn2)n1,-28,-2.4,-4,12%,15,
CSc1nc2[nH]c3c(c2c2ncnn12)CCCC3,-35,1.5,10,54%,73,
O=C(Cn1ncn2cccc2c1=O)N1CCCCC1,-22,-1.4,-3,-5%,-4,
CC(=O)c1ccc(NC(=O)CSc2nc(N3CCOCC3)nc(N3CCOCC3)n2)cc1,/,1.7,/,/,4,
O=C(CCc1c[nH]c2ccccc12)N/N=C/c1ccc2c(c1)OCO2,/,-1.6,-15,4%,-6,
NS(=O)(=O)c1ccc(CCNC(=O)C(=O)NCC2OCCN2S(=O)(=O)c2cccs2)cc1 (stereo unspecified),/,-0.4,/,/,10,
CN1CCC(NC(=S)NC2CC2)CC1,/,-3.4,2,2%,-6,
COc1nc2ccc(C)cc2cc1-c1noc(-c2ccccc2)n1,-43,-1.3,-2,-3%,-4,
CCCC(C)NC(=O)c1ccc(OCc2ccc(Cl)cc2)c(OC)c1 (stereo unspecified),-13,-0.2,0,12%,/,
CCOC(=O)c1c(NC(=O)CSc2nnc(C)s2)sc2c1CCC(C)C2 (stereo unspecified),-11,0.1,-5,1%,-5,
CC(C)Cc1nnc(NC(=O)CCC(=O)N2CCN(c3ccc(F)cc3)CC2)s1,/,-1.9,/,/,1,
Cc1cc(=O)n2nc(-c3ccc(C(F)(F)F)cc3)sc2n1,-11,3.0,-2,-9%,-14,
O=C1C2C3C=CC(C3)C2C(=O)N1c1ccccc1 (stereo unspecified),-46,-2.9,-1,-1%,0,Arbovirus anti repeat=8
O=[N+]([O-])c1ccccc1NC(=S)N/N=C/c1ccc(O)c(O)c1,/,1.3,-11,9%,3,
Cc1cc(C)c(-c2c(O)c3cccc4c3n(c2=O)CCC4)c(C)c1,-11,3.3,-2,-8%,-5,
O=C(Cn1nnc(-c2ccc(F)cc2)n1)Nc1ccc2c(c1)OCCO2,/,0.1,0,-2%,-7,
Cc1ccc(C(C(=O)NCC2CCCO2)N(Cc2ccccc2F)C(=O)Cn2nnc(-c3cccs3)n2)cc1 (stereo unspecified),3,5.5,4,-4%,0,
O=C(NC(Cc1ccccc1)C(=O)O)/C(=C\c1ccc([N+](=O)[O-])cc1)NC(=O)c1ccco1 (stereo unspecified),/,-4.1,/,/,-6,
COc1cc(CN(C(=S)NCC(=O)N2CCCC2)C2CCCC2)cc(OC)c1OC,/,-2.1,7,4%,-5,
COc1ccc(Cl)cc1NC(=O)CN1CCN(C(=O)N2CCOCC2)CC1,/,-1.3,/,/,-5,
CN(CC(=O)Nc1c(Cl)cccc1Cl)C(=O)CCNS(=O)(=O)c1ccccc1C(F)(F)F,/,0.2,/,/,-3,
CCOc1ccc(NS(=O)(=O)c2ccc(C(=O)NCCCN3CCOCC3)cc2)cc1,/,2.3,/,/,2,
Cc1ccc(N(CC(=O)NC(C)c2ccccc2)S(=O)(=O)c2c(C)n[nH]c2C)cc1 (stereo unspecified),/,0.3,/,/,2,
COc1ccc(NS(=O)(=O)c2ccc(/C=C/C(=O)O)cc2)cc1S(=O)(=O)N1CCOCC1,/,-1.3,/,-12%,-2,
O=C(Nc1ccc(-n2cnnn2)cc1)C1CCCN1C(=O)Nc1ccc(Br)cc1 (stereo unspecified),/,2.0,/,/,-5,
COc1cc(/C=N/Nc2snc(SC)c2C#N)ccc1O,-33,2.2,-5,6%,2,
COCCCNC(=O)c1ccc2c(=O)n(CC3CCCO3)c(=S)[nH]c2c1 (stereo unspecified),-34,-0.5,4,-1%,8,
COc1ccc(OC)c(NC(=O)CSc2nc3scc(C)c3c(=O)[nH]2)c1,/,1.2,/,/,-1,
CC(Sc1ccc(Cl)cc1)C(=O)Nc1ccc2c(c1)OCO2 (stereo unspecified),-12,5.2,-23,4%,-16,
CCNc1c(NS(=O)(=O)c2ccc(F)c(Cl)c2)c(=O)oc2ccccc12,/,0.0,/,/,5,
CCN1CCN(C(=S)NC(CC(=O)c2ccccc2)c2ccccc2)CC1 (stereo unspecified),/,-1.9,/,4%,0,
NC(=O)c1ccc(NC(=O)C2CC2)cc1,/,2.7,1,-1%,-1,
CC1c2cc3c(cc2CCN1C(=O)c1cccc(F)c1)OCCCO3 (stereo unspecified),/,3.3,/,/,2,
CCOC(=O)C1=C(C)N=c2s/c(=C\c3ccc(OC(C)=O)cc3)c(=O)n2C1/C=C/c1ccccc1 (stereo unspecified),-26,1.3,-2,2%,43,
N=Cc1c(O)n(-c2ccccc2)c(=O)n(-c2ccccc2)c1=O,/,-1.1,/,-9%,3,
CC(=O)c1oc2ccccc2c1N,-4,1.9,0,-11%,-25,

# By substructure, the compounds so far containing a COOH group (two)
SMILES,YopH inh,RecA splice inh,Arbovirus anti,Mtb H37Rv,Mtb betalactam,others
O=C(NC(Cc1ccccc1)C(=O)O)/C(=C\c1ccc([N+](=O)[O-])cc1)NC(=O)c1ccco1 (stereo unspecified),/,-4.1,/,/,-6,
COc1ccc(NS(=O)(=O)c2ccc(/C=C/C(=O)O)cc2)cc1S(=O)(=O)N1CCOCC1,/,-1.3,/,-12%,-2,

# (more compounds)
SMILES,YopH inh,RecA splice inh,Arbovirus anti,Mtb H37Rv,Mtb betalactam,others
COc1ccc(CNC(=O)CC(C)c2ccccc2)cc1 (stereo unspecified),/,-0.3,/,/,0,
Cc1cc(C(=O)NCc2ccc3c(c2)OCO3)ccc1[N+](=O)[O-],/,1.2,/,/,-34,
Cc1ccc(NC(=S)NNC(=O)c2ccc(N3CCOCC3)c([N+](=O)[O-])c2)cc1Cl,-10,5.8,-2,37%,13,
CCOCCCNC(=O)c1cc2c(-c3ccc(Cl)cc3)nn(C)c2s1,-43,-0.1,-4,10%,13,Arbovirus anti repeat=-4
O=C(NCc1cccnc1)c1ccc2c(=O)n(CCCN3CCCC3=O)c(=S)[nH]c2c1,-31,-6.5,3,1%,-6,
CCOCCCNC(=O)CCC(=O)NNc1nc2ccccc2c2nc(-c3ccccc3)nn12,-21,-2.7,-11,69%,53,
CCOc1ncccc1C(=O)OCc1c(F)cccc1Cl,/,8.7,-5,2%,3,
COc1ccc(Oc2cn[nH]c2-c2ccc(OC)cc2O)cc1,/,-2.1,/,/,3,
CC(=O)c1cc(C#N)c(N2CCN(C)CC2)nc1C,/,0.5,-3,-3%,2,
CN(C)CCC(c1ccc(Cl)cc1)c1ccccn1 (stereo unspecified),-26,0.6&-1.8,-3&-1,-10%&5%&-6%,1&0&2,
CCOC(=O)c1oc2ccccc2c1NC(=O)c1ccco1,/,-0.5,/,/,?,
O=C(CSc1ccc(-c2ccccn2)nn1)N1CCCCC1,/,1.7,-16,5%,0,
CN(CC(=O)Nc1cccc(F)c1)C(=O)c1ccccc1Cc1ccccc1,/,5.4,/,/,2,
CCOC(=O)C1CCN(C(=O)CN(c2ccc(Oc3ccccc3)cc2)S(C)(=O)=O)CC1,/,-2.2,-12,-8%,-5,
O=C(O)CN(c1ccccn1)S(=O)(=O)c1ccc(Cl)cc1,-20,5.1,2,-4%,-7,
Nc1cccnc1-n1nc(C(F)(F)F)cc1C(F)(F)F,/,-0.3,3,0%,-8,
Cc1ccc(O)c(CNc2nc3ccccc3n2C(C)C)c1,/,0.9,/,/,2,
COc1ccc(C2c3[nH]c4ccccc4c3C[C@H]3C(=O)N(c4ccccc4C(=O)N4CCC[C@H]4C(=O)O)C(=O)N23)cc1 (stereo partly specified),/,-3.7,/,/,3,
COc1ccccc1NS(=O)(=O)c1ccc(Cl)c(NC(=O)C(C)N2C(=O)c3ccccc3C2=O)c1 (stereo unspecified),-3,-0.5,3,3%,-6,
COc1ccc(Br)c2oc(SC)cc(=O)c12,-8,2.0,-2,-16%,-5,
CCN(CC)c1ccc(NC(=O)c2ccc3c(c2)c(C)c(C)n3C)cc1,/,-0.9,-25,49%,92,
COC(=O)c1cn(C(=O)c2cc(OC)c(OC)c(OC)c2)c2ccccc12,/,-1.2,/,/,-11,
Cc1nc(NC(=O)c2ccccc2)sc1C1(C)CC(c2ccc(OC(F)(F)F)cc2)=NO1 (stereo unspecified),/,9.7,/,80%,99,

# Molecules listed so far that have an aryl thioether with sulfur outside any ring:
SMILES,YopH inh,RecA splice inh,Arbovirus anti,Mtb H37Rv,Mtb betalactam,others
N#CCSc1nc2ccccc2c(=O)n1CC1CCCC1,/,2.6,-8,-2%,0,
O=c1c2ccccc2nc2n1C(CSc1ccc(F)cc1)CS2 (stereo unspecified),/,-2.8,4,5%,7,
CSc1nc2[nH]c3c(c2c2ncnn12)CCCC3,-35,1.5,10,54%,73,
CC(=O)c1ccc(NC(=O)CSc2nc(N3CCOCC3)nc(N3CCOCC3)n2)cc1,/,1.7,/,/,4,
CCOC(=O)c1c(NC(=O)CSc2nnc(C)s2)sc2c1CCC(C)C2 (stereo unspecified),-11,0.1,-5,1%,-5,
COc1cc(/C=N/Nc2snc(SC)c2C#N)ccc1O,-33,2.2,-5,6%,2,
COc1ccc(OC)c(NC(=O)CSc2nc3scc(C)c3c(=O)[nH]2)c1,/,1.2,/,/,-1,
CC(Sc1ccc(Cl)cc1)C(=O)Nc1ccc2c(c1)OCO2 (stereo unspecified),-12,5.2,-23,4%,-16,
O=C(CSc1ccc(-c2ccccn2)nn1)N1CCCCC1,/,1.7,-16,5%,0,
COc1ccc(Br)c2oc(SC)cc(=O)c12,-8,2.0,-2,-16%,-5,

# 3 structures from above, sorted by heavy-atom count, descending.
SMILES,YopH inh,RecA splice inh,Arbovirus anti,Mtb H37Rv,Mtb betalactam,others
CCN(CC)c1ccc(NC(=O)c2ccc3c(c2)c(C)c(C)n3C)cc1,/,-0.9,-25,49%,92,
Cc1cc(C(=O)NCc2ccc3c(c2)OCO3)ccc1[N+](=O)[O-],/,1.2,/,/,-34,
COc1ccc(CNC(=O)CC(C)c2ccccc2)cc1 (stereo unspecified),/,-0.3,/,/,0,
